Vaccinia mCherry: qHTS for Stage-Specific Inhibitors of Vaccinia Orthopoxvirus: mCherry Reporter Primary qHTS | Vaccinia virus mCherry reporter infection, fluorescence; about a quarter of the inactives have no number | Potency, µM (doses to about 36.5 µM), without a hit: at the top dose activity change, negative = inhibition, actives largely listed as inhibitors | hit rate 0.63% among 310,000 | AID 720579, 2013; active = well fitted inhibition curve with a large enough effect; inconclusive = small, poorly fitted or top-dose-only effect; inactive = no such curve, though single readings can be large or run the other way; tested in A549 cells; further: nearly all actives have a fitted effect of over 35% in size; inactives centre near -10
VACV Venus inh: qHTS for Stage-Specific Inhibitors of Vaccinia Orthopoxvirus: Venus Reporter Primary qHTS; Vaccinia virus Venus reporter expression, fluorescence; Potency, µM (top dose mostly 36.5 µM), for inactives: top-dose activity change, negative = inhibition, usual class: inhibitors; hit rate 0.46% among 330,000; AID 720580, 2013; active means well fitted inhibition curve with a large enough effect; inconclusive means small, poorly fitted or top-dose-only effect; inactive means no such curve, though single readings can be large or run the other way; tested in A549 cells; further: nearly all actives have a fitted effect of over 30% in size; inactives centre near -10
* marks the source's active call; other numbers are inactive results; i = inactive; ? = inconclusive; . = no result given; & = joins results of further samples; [ ] = remark or other dose. On the % scale 0 is the no-effect control and ±100 the full control effect; potency means the concentration at half of the fitted maximal effect.

cpd | SMILES | Vaccinia mCherry | VACV Venus inh
1 | COc1ccc(-c2coc3c(C(=O)NC4CCCCC4)cccc23)c(C)c1 | -4% | -3%
2 | Cc1cc(C(=O)NCC2CCC3(CCN(Cc4ccc(F)cc4)CC3)O2)n(C)n1 (stereo not drawn) | -6% | -3%
3 | COc1ccc(C(C(=O)NC(C)(C)C)N(C[C@H]2CC[C@@H]([C@@H]3CC[C@H](CO)O3)O2)C(=O)c2ccccc2)cc1 (stereo partly drawn) | i | 0%
4 | Cc1oc2ncn(CC(C)C)c(=O)c2c1C(=O)N(Cc1ccccc1)C(C)C | i | -9%
5 | O=C(Nc1ccc(Cl)cc1)N(CCCN1CCOCC1)Cc1cccs1 | i | -11%
6 | COc1cc(N(C(=O)Cc2cccs2)C(C(=O)NC2CCCCC2)c2cccc(OC)c2OC)ccc1-n1cnnn1 (stereo not drawn) | i | -14%
7 | CC(C)(C)N(Cc1ccccc1)C(=O)COC(=O)Cn1cnc2ccccc2c1=O | -1% | -8%
8 | S=C(Nc1ccc(Cl)cc1)NC1CCCCC1 | -4% | -8%
9 | O=C(O)c1cccc(S(=O)(=O)Nc2ccccc2Oc2ccccc2)c1 | -2% | -13%
10 | CCN1C[C@]2(C)CC[C@H](O)[C@@]34C5C[C@@H]6[C@@H](OC)C[C@@](O)(C5[C@H]6O)[C@@H](CC23)[C@@H]14 (stereo partly drawn) | -14% | -10%
11 | CCc1ccc(NC(=O)C(=O)NCCc2csc(-c3ccc(C(F)(F)F)cc3)n2)cc1 | -1% | -2%
12 | C/C(=N\Nc1ccc(Cl)cc1)c1ccncc1 | -14% | -14%
13 | CCOc1ccccc1NC(=O)CSc1nc2[nH]ncc2c(=O)[nH]1 | -3% | 4%
14 | Cc1ccc(-n2c(SCC(=O)N3CCC(C(=O)O)CC3)nc3ccccc3c2=O)cc1C | -14% | -4%
15 | COc1ccc(N(CC(=O)Nc2ccc(S(=O)(=O)N3CCOCC3)cc2)S(=O)(=O)c2ccccc2)cc1 | . | -10%
16 | Cc1cc(C)n2nc(C(=O)OCC(=O)c3cc(C)n(CC4CCCO4)c3C)nc2n1 (stereo not drawn) | i | -1%
17 | CCOC(=O)c1cnn(-c2ccccc2)c1-n1cccc1 | -20% | -10%
18 | COc1cc2c(cc1OC)n(CC(=O)c1ccc(C)cc1)c(=O)n1nc(CCn3nc(C)cc3C)nc21 | i | -10%
19 | Cc1ccc(NC(=O)CSc2nc(=O)n(CCN(C)C)c3c2CCCC3)c(C)c1 | i | -7%
20 | CCOC(=O)[C@]12Cc3cc4ccccc4cc3[C@H]1N(Cc1ccccc1)C(=O)c1cc(OC)ccc12 | ? | ?
21 | Cc1c(NC2=CC(=O)CC(C)(C)C2)c(=O)n(-c2ccccc2)n1C | 1% | -9%
22 | CCOC(=O)c1[nH]c(C)c(CCC(=O)Nc2cc(Cl)c(OC)cc2OC)c1C | -14% | -13%
23 | Cc1ccc(NC(=O)c2c(NC(=O)c3ccco3)sc3c2CCC(C(C)(C)C)C3)c(C)c1 (stereo not drawn) | i | -6%
24 | O=C(Nc1ccn(CCCNCc2ccccn2)c(=O)n1)OCc1ccccc1 | i | 0%
25 | Cc1cc([N+](=O)[O-])cc2c1-c1ncccc1C2=Nc1ccccc1 | -7% | -10%
26 | CN(C(=O)c1ccc(NC(=O)Cc2cccc(NC(=O)C3CCCN(C(=O)C4CCC4)C3)c2)cc1)C1CC1 (stereo not drawn) | i | -11%
27 | Cc1ccc(S(=O)(=O)N2CCN(c3ncnc4c3cnn4-c3ccccc3)CC2)cc1 | -14% | 0%
28 | c1ccc(-c2cc(-c3nnc4n3N=C(c3ccc5ccccc5c3)CS4)[nH]n2)cc1 | ? | ?
29 | CCOc1ccccc1C(=O)NCC(=O)O | -7% | 1%
30 | COc1ccc(CCNC(=O)c2cnn3ccccc23)c(OC)c1OC | -8% | -7%
31 | O=C(CN(C(=O)CCC(=O)Nc1nccs1)c1cccc(C(F)(F)F)c1)NCC1CCCO1 (stereo not drawn) | -9% | -6%
32 | CC1CCN(c2nc3c(S(=O)(=O)c4ccc(Cl)cc4)nnn3c3ccsc23)CC1 | -27% | -29%
33 | O=C(CSCc1ccc(Cl)cc1)N1CCOCC1 | i | -21%
34 | Cc1ccc(NC(=S)N2CCN(Cc3ccccc3)CC2)cc1 | -28% | -17%
35 | CCOC(=O)N1CCN(C(=O)CSc2ccc(-c3ccc(OC)c(OC)c3)nn2)CC1 | i | -1%
36 | COc1ccc2nc(/N=C/c3c(C)[nH]n(-c4ccc(C)cc4)c3=O)sc2c1 | -11% | -8%
37 | O=C(COC(=O)C1CCC1)Nc1ccccc1Sc1ccccc1 | i | -6%
38 | CC(=O)c1cccc(NC(=O)c2nc(-c3ccc(C)cc3)n3c2CCCCC3)c1 | -14% | -6%
39 | O=c1c2cc([N+](=O)[O-])ccc2nc(CN2CCN(c3ccccn3)CC2)n1-c1ccccc1F | 1% | -2%
40 | O=C1CNC(=O)/C(=C/c2cccs2)N1 | 6% | 0%
41 | COC(=O)CC1Oc2ccc(Cl)cc2-n2cc(-c3ccc(C)cc3)nc21 (stereo not drawn) | -10% | -11%
42 | OC1(CNCc2cn[nH]c2-c2cc3ccccc3o2)CCCCC1 | -5% | -7%
43 | NS(=O)(=O)c1ccc(CCNC(=O)c2coc3ccccc3c2=O)cc1 | -6% | -16%
44 | CC(=O)COC(=O)c1ccc2noc(-c3ccccc3)c2c1 | i | -18%
45 | CCN1CCN(c2cc(C)c3cc(NC(=O)CCC(=O)Nc4ccc(OC)cc4OC)ccc3n2)CC1 | -4% | -20%
46 | O=C(COC(=O)CCC1CCCC1)Nc1nc2c(F)c(F)c(F)cc2s1 | i | -10%
47 | COc1ccccc1[C@@H]1C(c2cccc(C)c2)=NN(c2ccc(Br)cc2)[C@H]1C(=O)N1CCOC1=O | -16% | -5%
48 | COc1c(C)cc(C(O)c2ncc(-c3ccccc3)[nH]2)cc1C (stereo not drawn) | 16% | 6%
49 | CCCn1nc(C(=O)N2CCCc3ccccc32)c2ccccc2c1=O | -11% | -18%
50 | Cc1onc(-c2ccccc2)c1C(=O)N1CCN(c2ncccc2C(F)(F)F)CC1 | -19% | -12%
51 | Oc1ccc(N=Nc2ccccc2)cc1 | 0% | -3%
52 | O=C(CSc1nc2sc3c(c2c(=O)[nH]1)CCCC3)Nc1ccccc1F | -10% | -13%
53 | OC[C@@H]1CN(Cc2cccs2)C[C@H](n2cnc3c(NCc4ccncc4)ncnc32)O1 | 33%[activator] | 6%
54 | O=C(Nc1cccc2ccccc12)N(CCO)C1CCS(=O)(=O)C1 (stereo not drawn) | ? | -17%
55 | Clc1cccc(Cc2c(-c3ccco3)nc3ccc(Cl)cn23)c1 | 4% | 0%
56 | O=C(Nc1ccc2c(c1)OCO2)N1CCN(Cc2ccco2)CC1 | -12% | 3%
57 | Cc1cccc2cc(C(c3nnnn3Cc3ccc4c(c3)OCO4)N3CCCC3)c(=O)[nH]c12 (stereo not drawn) | . | 0%
58 | CCOc1ccc(NC(=S)NCCCN2CCN(C3CCCCC3)CC2)cc1 | -26% | -17%
59 | COc1ccc(-c2cc(C(F)(F)F)nc(SCCC(=O)N3CCN4CCCC4C3)n2)cc1 (stereo not drawn) | . | -9%
60 | CNC(=O)C[C@H]1C(=O)N(C2CCCCC2)C[C@@H]1CSC | -3% | -6%

Entries 46 through 58 of the list above:
cpd | SMILES | Vaccinia mCherry | VACV Venus inh
46 | O=C(COC(=O)CCC1CCCC1)Nc1nc2c(F)c(F)c(F)cc2s1 | i | -10%
47 | COc1ccccc1[C@@H]1C(c2cccc(C)c2)=NN(c2ccc(Br)cc2)[C@H]1C(=O)N1CCOC1=O | -16% | -5%
48 | COc1c(C)cc(C(O)c2ncc(-c3ccccc3)[nH]2)cc1C (stereo not drawn) | 16% | 6%
49 | CCCn1nc(C(=O)N2CCCc3ccccc32)c2ccccc2c1=O | -11% | -18%
50 | Cc1onc(-c2ccccc2)c1C(=O)N1CCN(c2ncccc2C(F)(F)F)CC1 | -19% | -12%
51 | Oc1ccc(N=Nc2ccccc2)cc1 | 0% | -3%
52 | O=C(CSc1nc2sc3c(c2c(=O)[nH]1)CCCC3)Nc1ccccc1F | -10% | -13%
53 | OC[C@@H]1CN(Cc2cccs2)C[C@H](n2cnc3c(NCc4ccncc4)ncnc32)O1 | 33%[activator] | 6%
54 | O=C(Nc1cccc2ccccc12)N(CCO)C1CCS(=O)(=O)C1 (stereo not drawn) | ? | -17%
55 | Clc1cccc(Cc2c(-c3ccco3)nc3ccc(Cl)cn23)c1 | 4% | 0%
56 | O=C(Nc1ccc2c(c1)OCO2)N1CCN(Cc2ccco2)CC1 | -12% | 3%
57 | Cc1cccc2cc(C(c3nnnn3Cc3ccc4c(c3)OCO4)N3CCCC3)c(=O)[nH]c12 (stereo not drawn) | . | 0%
58 | CCOc1ccc(NC(=S)NCCCN2CCN(C3CCCCC3)CC2)cc1 | -26% | -17%

Continued.
cpd | SMILES | Vaccinia mCherry | VACV Venus inh
61 | Cc1ccc2c(=O)c(C(=O)c3cccc(Cl)c3)cn(CC(=O)NC3CCCCC3)c2n1 | 10% | 4%
62 | COc1ccc(-n2c(=O)c3c4c(sc3n(CC(=O)NCC3CCCO3)c2=O)CCCC4)c(OC)c1 (stereo not drawn) | i | -18%
63 | O=C(CSc1nc2ccccc2c(=O)[nH]1)c1cccs1 | -2%[1.46 µM] | -18%
64 | O=[N+]([O-])c1cccc(-c2cc3cccc[n+]3cc2-c2cccc([N+](=O)[O-])c2)c1 | -1% | 6%
65 | CCN(CC)C(=O)c1ccc(NC(=O)c2cn(-c3ccccc3)nc2-c2ccc(OC)cc2)cc1 | -25% | -26%
66 | COc1ccc(CC(=O)Nc2nc(C(C)(C)C)cs2)cc1 | ? | -29%
67 | Cc1c(C(=O)/C=C/N(C)C)nnn1-c1ccc(F)c(Cl)c1 | i | -9%
68 | CN1CCN(NC(=O)CN2C(=O)S/C(=C\c3c(Cl)cccc3Cl)C2=O)CC1 | -10% | -19%
69 | COc1ccc(C)cc1NC(=O)c1c(C)nn(Cc2ccccc2)c1Cl | i | 3%
70 | NS(=O)(=O)c1cccnc1Nc1cccc(Cl)c1 | . | -5%
71 | CCN(CC)C(=O)c1[nH]cnc1C(=O)N[C@@H](CC(C)C)C(=O)OC(C)(C)C | i | -6%
72 | Cc1cccc(N2C(=O)C(CC(=O)Nc3cccc(F)c3)N(CCc3ccncc3)C2=O)c1 (stereo not drawn) | -12% | -10%&1%
73 | COc1ccc2cc(C(c3nnnn3CCc3ccccc3)N3CCC(O)CC3)c(=O)[nH]c2c1 (stereo not drawn) | i | 11%
74 | CCOC(=O)c1cnc2c(C)cc(C)cc2c1Nc1ccc(OCc2ccccc2)cc1 | -3% | -5%
75 | CC1(C(=O)Nc2cccc3c2CCCC3)CCN1C(=O)CCC1CCCC1 (stereo not drawn) | ? | -7%
76 | Cc1cccc(-n2nnc(C(=O)NCc3ccco3)c2N)c1 | -19% | -18%
77 | C=CCn1c(-c2ccc(F)cc2)n[nH]c1=S | i | -15%
78 | COc1cc(/C=C/C(O)=C/C(=O)/C=C/c2ccc(O)cc2)ccc1O | -3% | 14%
79 | CCO[C@H]1OC(C(=O)NC2CC2)=C[C@@H](c2ccccc2)[C@@H]1CCCO | i | -20%
80 | CCN(C(=O)CN1CCN(c2ccccc2O)CC1)c1c(N)n(Cc2ccccc2)c(=O)[nH]c1=O | . | -9%
81 | O=C(Cn1c(=O)nc(-c2ccccc2)c2cc(Cl)ccc21)N1CCN(c2ccc(F)cc2)CC1 | i | -17%
82 | O=C(CSc1ncnc2nc[nH]c12)c1ccc(Cl)cc1 | i | -17%
83 | CCC(CC)C(=O)N1CCCC(c2nc(-c3cccs3)no2)C1 (stereo not drawn) | -12% | -5%
84 | O=C(NC(NC(=S)Nc1ccc(Cl)cc1)C(Cl)(Cl)Cl)c1ccco1 (stereo not drawn) | ? | -24%
85 | COc1cc(/C=C/C(=O)OCC(=O)N2CCC(Cc3ccccc3)CC2)ccc1O | i | -14%
86 | CN(C)c1ccc(C(=O)N2CCCC(N3CCN(Cc4ccc5c(c4)OCO5)CC3)C2)cc1 (stereo not drawn) | -3% | -20%
87 | CC(C)Oc1cccc(NC(=O)C2(C)CCCN2C(=O)C(C)C)c1 (stereo not drawn) | i | -13%
88 | COC(=O)[C@]1(Cc2ccccc2)N[C@H](CN(C)C(=O)c2ccc(F)cc2)[C@@H]2C(=O)N(Cc3ccccc3)C(=O)[C@@H]21 | i | -16%
89 | CCOC(=O)C1C2C=CC3(CN(Cc4ccccc4)C(=O)C13)O2 (stereo not drawn) | i | -1%
90 | CC(CCl)n1c(=O)c2ccccc2n1S(C)(=O)=O (stereo not drawn) | 1% | -4%
91 | COc1cc(-c2nc(-c3ccncc3)no2)cc(OC)c1OC | -12% | -7%
92 | Cc1cc(=O)oc2cc(OCc3cc4c(cc3Cl)OCO4)ccc12 | . | -29%
93 | CCc1nn(CC(=O)NCCCN2CCN(C)CC2)c(=O)c2cc3sc(C)cc3n12 | i[7.34 µM] | 0%[7.34 µM]
94 | CS(=O)(=O)c1ccc2nc(NC(=O)CCS(=O)(=O)c3ccccc3)sc2c1 | -7% | -19%
95 | O=C(CCS(=O)(=O)c1ccccc1)N1CCOCC1 | i | -3%
96 | CCc1nc2ccc(C(=O)N3CCN(S(=O)(=O)CC)CC3)cn2c1N(C=O)CCC(C)C | 28% | 2%
97 | CC(C)CCOc1ccc(/C=C2\CCn3c2nc2cc(C(=O)O)ccc2c3=O)cc1 | i | 0%
98 | Nc1nccnc1C(=O)OCC(=O)N1CCN(S(=O)(=O)c2ccc(Cl)cc2)CC1 | -11% | -13%

Bioassay records (PubChem)
